A1 inh = inhibitors of the anti-apoptotic protein A1, read as caspase activation | caspase activation, % (concentration not given with the values) | hit rate 0.066% among 330,000 | AID 2462 | MEF A1-2A-BIM cells, Caspase-Glo 3/7 luminescence, 3 h; percent of clofoctol response, vehicle zero;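 active means over half of replicate activation scores above 10%, or exactly half above 10 with the replicate mean above 10; inconclusive means replicate mean below 10 yet half the replicates above 10; inactive means over half of replicates below 10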;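 further: wells of about 30 µL received 50 nL stock; many hits fall short of the cut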
T cruzi inh = blocks replication of Trypanosoma cruzi; hit rate 1.4% among 300,000; AID 1885; inhibition, % (concentration not given with the values); T. cruzi beta-gal in NIH3T3, luminescence, 90 h;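 active means mean inhibition across valid replicates above about 55%, limit read from the data; inconclusive means mean below that limit but half or more replicates reach it; inactive means mean below it, under half of replicates reach it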;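 further: signal also drops with host cell toxicity which is not excluded here; 0% = plate median of DMSO wells and 100% = zero luminescence signal; higher percent means less beta-gal luminescence so fewer parasites; stock transfer was 50 nL into about 50 µL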
Beta cell apopt = blocks beta cell apoptosis; INS-1E cytokine-induced death, ATP luminescence, 48 h; percent of positive-control rescue, neutral wells zero; protection from apoptosis, % (test concentration not listed); hit rate 0.8% among 300,000; AID 435005;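 active means all replicates at 75% or more, or half of them and the mean; inconclusive means half reach 75% but not the mean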;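 further: 0% = cytokine-treated negative control wells and 100% = positive control rescue; higher means more ATP so stronger rescue from cytokine killing; wells of about 40 µL received 100 nL stock; the first replicate is given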
AF4-AF9 inh = inhibitors of human MLL-AF4/AF9 interaction. inhibition, % at 10 µM. AlphaScreen, biotin-AF4 peptide binding to FLAG-AF9. hit rate 0.47% among 350,000. P42568;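 active means every replicate reaching a set inhibition limit, whatever the replicate mean, cut at about 25% in these data; inconclusive means mean inhibition reaches that limit but some replicates miss it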;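 further: 0% = plate neutral control median and 100% = total signal loss; the record names both 10 and 1 µM as test concentration; the first replicate is given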
Target sequence (P42568 whole entry, looked up): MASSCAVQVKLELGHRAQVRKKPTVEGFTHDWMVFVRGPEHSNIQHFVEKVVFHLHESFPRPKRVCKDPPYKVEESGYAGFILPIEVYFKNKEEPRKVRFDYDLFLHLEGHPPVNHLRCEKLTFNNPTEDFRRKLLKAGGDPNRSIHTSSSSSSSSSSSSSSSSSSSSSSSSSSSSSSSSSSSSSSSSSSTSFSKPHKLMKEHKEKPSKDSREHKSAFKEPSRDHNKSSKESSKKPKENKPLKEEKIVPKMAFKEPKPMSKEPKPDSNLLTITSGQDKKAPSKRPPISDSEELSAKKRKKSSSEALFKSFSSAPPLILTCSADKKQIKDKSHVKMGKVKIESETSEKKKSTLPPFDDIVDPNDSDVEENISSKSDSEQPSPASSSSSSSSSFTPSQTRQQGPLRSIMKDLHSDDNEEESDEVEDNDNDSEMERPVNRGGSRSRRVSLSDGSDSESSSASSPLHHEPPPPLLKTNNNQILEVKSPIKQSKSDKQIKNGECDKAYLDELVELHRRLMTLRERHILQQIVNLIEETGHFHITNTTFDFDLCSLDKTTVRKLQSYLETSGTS
E coli growth = E. coli growth inhibition; Escherichia coli growth, OD600, 23 h; active compounds read low; OD600 absorbance (concentration not given with the values); hit rate 0.21% among 330,000; AID 1053175;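 active means OD600 absorbance below the run mean of sample wells minus 3.6 SD, in any replicate, cut at about 0.56 in these data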;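 further: stock transfer was 300 nL into about 60 µL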
Ecoli rRNA inh = selective bacterial rRNA inhibition in E. coli | E. coli WT GFP vs humanized-ribosome RFP mutants, fluorescence, 24 h; active compounds read low; DMSO median 0, no signal -100 | GFP signal change (wild-type ribosome), % (no concentration beside the values) | hit rate 1.6% among 350,000;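 active means significant combined selectivity score with lowered wild-type GFP, culture density cut under 30%, mutant RFP and density less affected; inactive means any of these conditions unmet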; further: one replicate is shown; some compounds called inactive have numbers as strong as hits
UCH37 inh = inhibitors of human deubiquitinating enzyme UCH37. purified proteasome/UCH37, Ub-AMC cleavage fluorescence. inhibition, % (no concentration beside the values). hit rate 0.33% among 330,000;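 active means mean of two replicates above 20%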;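 further: 0% = compound-free wells with enzyme and 100% = wells lacking proteasome; stock transfer was 100 nL into about 20 µL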
Target sequence (Q9Y5K5 whole entry, looked up): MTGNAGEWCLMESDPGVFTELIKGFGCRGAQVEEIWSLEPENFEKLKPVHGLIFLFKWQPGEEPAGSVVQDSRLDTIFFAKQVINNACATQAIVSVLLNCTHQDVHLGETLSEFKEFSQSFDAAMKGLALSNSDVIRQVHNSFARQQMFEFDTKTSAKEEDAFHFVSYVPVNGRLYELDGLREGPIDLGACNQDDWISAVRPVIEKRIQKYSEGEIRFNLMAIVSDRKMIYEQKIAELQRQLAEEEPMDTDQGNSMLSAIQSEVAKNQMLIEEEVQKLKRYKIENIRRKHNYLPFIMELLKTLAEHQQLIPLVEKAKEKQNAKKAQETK
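Material: Human UCH37 enzyme supplied as purified proteasome complex | Schedule: 30 min compound-proteasome preincubation then 25 min substrate reaction, room temperature | Detection: AMC fluorescence from Ub-AMC cleavage, excitation 355 nm, emission 460 nm | Benchmarks: Wells without proteasome as full block, compound-free enzyme plus substrate as uninhibited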
FGF22 binding = shifts melting point of recombinant human FGF22. calls only at 9.99 µM. hit rate 1.5% among 340,000. AID 651658. Q9HCT0. recombinant FGF22 thermal shift, SYPRO orange fluorescence; percent of sucrose octasulfate shift, DMSO zero;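 active means melting point raised past a set limit in the mean and every replicate; inconclusive means no clear call; three in four hits are not shown here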
Target sequence (Q9HCT0 whole entry, looked up): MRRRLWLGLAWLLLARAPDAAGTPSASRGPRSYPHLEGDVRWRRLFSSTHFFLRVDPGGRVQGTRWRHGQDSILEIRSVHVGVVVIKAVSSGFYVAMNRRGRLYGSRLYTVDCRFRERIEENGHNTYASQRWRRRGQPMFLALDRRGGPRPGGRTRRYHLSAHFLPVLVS
Ecoli rRNA inh OD600 = further read-out of Ecoli rRNA inh, marked with its call; OD600 change, %; measured here: OD600 growth;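 optical density of the mix in the first replicate; 0 = DMSO median and -100 = no signal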
Ecoli rRNA inh RFP = recorded beside Ecoli rRNA inh, whose call it bears; RFP signal change, %; measured here: RFP humanized mutant strains;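 first replicate; 0 = DMSO median and -100 = no signal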
Numbers without * were called inactive; i = inactive; ? = inconclusive; nt = no result given.

SMILES,A1 inh,T cruzi inh,Beta cell apopt,AF4-AF9 inh,E coli growth,Ecoli rRNA inh,Ecoli rRNA inh OD600,Ecoli rRNA inh RFP,UCH37 inh,FGF22 binding
CCN(Cc1ccccc1)S(=O)(=O)c1c(C(=O)N2CCCC2)c(C)n(C)c1C,0.0,12,1,-0.2,0.7,12,0,-3.4,4.0,i
COC(=O)Cn1c(CN2CCN(c3ccc(F)cc3)CC2)nc2c1c(=O)n(C)c(=O)n2C,nt,-16,-6,nt,0.79,nt,nt,nt,4.0,nt
O=S(=O)(c1cc(Cl)ccc1Cl)n1ccnc1,nt,nt,nt,1.4,0.69,22,17,2.2,2.3,i
COc1ccccc1C1CN=NC12CCCc1ccccc1C2=O (centres undefined),0.1,-3,-5,nt,0.68,nt,nt,nt,1.9,nt
COCCNc1oc(-c2ccc(F)cc2)nc1C#N,-0.1,-7,-2,nt,0.74,nt,nt,nt,-287,nt
COc1ccccc1C(C)Nc1nc(-c2cccnc2)nc2ccccc12 (centres undefined),0.5,53,-2,0.7,0.67,-67,-74,-17,1.9,i
CCN(C(=O)COC(=O)c1cc2c(s1)CCCC2)c1c(N)n(Cc2ccccc2)c(=O)[nH]c1=O,1.4,nt,4,-1.8,0.71,1,4,0.3,1.5,i
Cc1ccc(NC(=O)c2ccccc2)cc1-n1cnnn1,0.2,1,0,-0.1,0.68,-2,6,-0.9,-0.6,i
O=C(Nc1cccc([N+](=O)[O-])c1)c1ccc(CN2CCOCC2)cc1,-1.1,3,1,1.8,0.67,2,9,5.9,3.4,i
COc1ccc(CCNC(=O)CN(c2ccc(OC)c(OC)c2)S(C)(=O)=O)cc1,0.0,-2,2,nt,0.72,nt,nt,nt,0.4,nt
COc1cccc2[nH]c(=O)c(-c3ccccc3)cc12,-3.4,-12,-6,-4.9,0.65,11,8,-0.8,-150,i
CCCCc1cc(=O)oc2cc(OCC(=O)NCc3ccccn3)ccc12,0.0,10,3,-6.3,0.68,3,11,-2.0,-8.5,i
O=C(COc1ccc2ccccc2c1Br)N1CCN(c2ccccn2)CC1,-0.1,-5,2,-4.7,0.7,6,10,-5.8,4.1,i
CCc1ncc(CN2CCC(C(=O)Nc3ccc(-n4nc(C)cc4C)cc3)CC2)cn1,-0.1,3,-9,-5.0,0.71,15,13,2.0,3.2,i
OCCNc1nc(Nc2cccc(O)c2)nc2ccccc12,-0.1,3,2,14,0.65,-8,-5,-8.9,2.1,i
CC(Oc1ccc2ccccc2c1)C(=O)NNC(=O)Nc1ccccc1F (centres undefined),-0.4,-2,-11,-3.1,0.67,-5,-20,-0.2,0.8,i
COc1ccc(CC(=O)N2CCN(c3ccccn3)CC2)cc1OC,0.0,nt,3,nt,0.71,nt,nt,nt,-3.7,nt
CCC(C)(C)C1CCC2(CC1)NC(=S)N(c1ccccc1)N2 (centres undefined),-1.0,4,-3,2.9,0.69,6,-4,0.0,3.2,i
CC1(C)C2CCC1(CS(=O)(=O)N1CCN(c3ccc(F)cc3)CC1)C(=O)C2 (centres undefined),1.2,4,0,-0.2,0.66,12,12,0.7,3.4,i
Cc1nc2c(C(=O)NCc3ccc4c(c3)OCO4)c[nH]n2c(=O)c1Cc1ccccc1F,0.9,-6,-8,0.6,0.65,-58,-80,-23,-14,i
O=C(NCc1ccccc1Cl)C1CCCN1S(=O)(=O)c1ccc(F)cc1 (centres undefined),-0.4,-2,-2,-3.4,0.69,-15,-1,-2.9,5.1,i
Cc1ccc(OCC(=O)NCC(=O)Nc2ccc(F)cc2)c([N+](=O)[O-])n1,-0.4,-14,-10,nt,0.59,nt,nt,nt,3.9,nt
COCCNC(=O)C(C)OC(=O)c1cc2sccc2n1C (centres undefined),0.7,-6,nt,nt,0.7,nt,nt,nt,0.7,nt
NS(=O)(=O)c1ccc(NC(=O)CSc2ncccn2)cc1,-0.5,-10,-3,-15,0.72,10,8,0.0,4.8,i
COc1ccc2oc(=O)c(C(=O)N3CCN(c4ccc(F)cc4)CC3)cc2c1,0.3,9,nt,nt,0.71,nt,nt,nt,-4.1,nt
Cc1ccc(NC(=O)CCNCc2ccco2)cc1S(=O)(=O)N(C)C,0.3,-7,-3,1.8,0.57,11,-2,-2.0,-0.4,nt
CN(C)c1ccc(S(=O)(=O)N2CCCCC2)cc1NC(=O)C1=NN(c2ccccc2)C(=O)CC1,0.5,19,nt,6.8,0.7,10,16,2.1,5.9,i
CNC(=S)N/N=C(\C)c1ccc(Cl)c(Cl)c1,0.5,19,13,6.2,nt,-22,-49,-2.7,nt,i
CC[C@@H]1[C@H]2CCCC(=O)N3CC[C@@H](C[C@@H]1OC(=O)Nc1ccccc1)[C@@H]23,-0.2,13,-1,-6.4,nt,-8,-3,-2.2,-5.7,i
Cc1cccc(NC(=O)CSc2nnc(C3CC3)n2CC2CCCO2)c1C (centres undefined),0.1,2,-1,0.9,0.66,2,3,-1.1,4.3,i
O=C(O)CCC(=O)Nc1ccc(C(=O)OCC(=O)c2ccc(Cl)cc2)cc1,0.5,-7,-8,-2.3,0.65,-9,-14,0.0,7.8,nt
O=C(c1cccc(Cl)c1)N1CCC(N2CCC(C(=O)N3CCOCC3)CC2)CC1,0.0,-4,1,0.7,0.69,12,-5,2.6,3.2,i
Cc1nc(SCC(=O)NNC(=O)c2cccs2)[nH]c(=O)c1C,0.3,-5,nt,-0.7,0.68,7,9,0.8,3.5,nt
Cc1ccc(SC(C)C(=O)NC(N)=O)c(C)c1 (centres undefined),-0.4,3,-6,-1.9,0.66,20,13,0.8,3.2,i
O=[N+]([O-])c1ccc(C2OCCO2)cc1CS(=O)(=O)c1ccccc1,0.0,-5,-14,-1.1,0.67,1,12,2.6,0.8,i
O=C(Nc1ccccc1)C1CCN(c2nccs2)CC1,0.9,0,-7,nt,0.76,nt,nt,nt,1.6,nt
C=CCNC(=S)Nc1ccc2nsnc2c1,-1.7,-16,-8,nt,nt,nt,nt,nt,3.3,nt
COc1ccc(CN2CCC(C(=O)N(C)CCc3ccc(OC)c(OC)c3)CC2)c(OC)c1,-0.6,-8,-3,nt,0.68,nt,nt,nt,1.6,nt
CCCCCCCCCCn1cc(C(C)=O)c(=O)[nH]c1=O,-0.2,13,-6,nt,0.7,nt,nt,nt,3.7,nt
CNc1c([N+](=O)[O-])cnn1-c1ccccc1Cl,0.2,-16,-4,nt,0.67,nt,nt,nt,11,nt
Cc1cc(OCC(=O)NCCc2c[nH]c3ccccc23)c2c(C)cc(=O)oc2c1,-0.3,9,nt,-0.9,0.75,nt,nt,nt,-1.2,i
O=C(Nc1ccncc1)c1ccc(Cl)c(S(=O)(=O)N2CCCC2)c1,0.2,8,5,2.6,0.64,-2,-1,3.0,0.5,i
CC(=O)c1c(C)[nH]c(C(=O)COC(=O)C2CC2)c1C,0.3,-6,3,-0.3,0.67,17,6,0.0,-3.8,i
CCN(CC)CCOC(=O)c1cc(Cl)c(N)cc1OC,?,nt,-1,-0.6,0.66,nt,nt,nt,0.3,i
CN(CC(=O)Nc1ccc(Cl)c(C(F)(F)F)c1)CC(=O)NC1CCCCC1,1.2,nt,63,nt,0.66,nt,nt,nt,-0.9,nt
O=C(CSc1nnc(-c2ccc(F)cc2)o1)Nc1ccc(S(=O)(=O)N2CCCCCC2)cc1,0.1,23,7,nt,0.73,nt,nt,nt,3.4,nt
CCc1ccc(NS(=O)(=O)c2c(C(=O)N3CCOCC3)c(C)n(C)c2C)cc1,0.2,-20,nt,0.4,0.69,-1,2,-1.3,1.7,i
CCOC(=O)c1nn(-c2ccccc2)cc1O,-1.5,-13,-4,-0.5,0.61,-6,-1,-1.8,-2.6,i
N#CC1=C(SCC(N)=O)NC(=O)CC1c1cccc2ccccc12 (centres undefined),nt,nt,nt,11,0.7,3,9,-3.5,5.5,i
CC(C)(C)c1ccc(-c2n[nH]c(=S)n2/N=C/c2ccncc2)cc1,0.2,-4,-1,-2.2,nt,-6,1,-0.8,nt,i
Cc1cc(C)c(NC(=O)c2cccc(NC(=O)c3ccco3)c2)c(C)c1,1.1,13,9,-5.2,0.68,-7,-11,-1.7,2.8,i
Cc1cc(=O)oc2cc(NC(=O)CN3C(=O)NC(C)(c4ccccc4)C3=O)ccc12 (centres undefined),0.1,-14,-3,-29,0.7,2,8,-0.6,-117,i
CCN(Cc1ccccc1)C(c1ccc(C)cc1)c1nnnn1C(C)(C)CC (centres undefined),-0.2,14,2,nt,0.7,nt,nt,nt,1.5,nt
CS(=O)(=O)NNC(=O)c1cc2cc3ccccc3nc2s1,-0.8,9,2,0.2,0.69,-4,5,-3.5,-17,i
CC(=O)N1c2ccc(S(=O)(=O)N(C)CC(=O)N(C)Cc3ccccc3)cc2CC1C (centres undefined),0.2,-4,-4,-1.1,0.62,-2,-9,-4.2,1.3,i
O=C(Cn1cc(C(F)(F)F)cc(Cl)c1=O)NC1CCS(=O)(=O)C1 (centres undefined),-0.3,nt,-2,-1.9,0.69,25,12,0.0,3.5,i
COc1ccc(-c2cc(-c3nnc(COC(=O)CC4CCCC4)o3)c3ccccc3n2)cc1OC,0.0,-9,1,-5.4,0.7,-9,5,-3.4,-188,i
Cc1ccc(S(=O)(=O)NCC(=O)NCC2COc3ccccc3O2)cc1C (centres undefined),0.2,nt,-1,-0.8,0.67,0,1,-1.4,5.4,i
CCN(CC)c1cccc(OC2=NS(=O)(=O)c3ccccc32)c1,-0.5,13,-8,nt,0.66,nt,nt,nt,1.6,nt
COc1ccc(N2C(=O)CCC2(C(N)=O)c2ccccc2)cc1 (centres undefined),-0.4,-11,-3,nt,0.71,nt,nt,nt,2.8,nt

(further entries)
SMILES,A1 inh,T cruzi inh,Beta cell apopt,AF4-AF9 inh,E coli growth,Ecoli rRNA inh,Ecoli rRNA inh OD600,Ecoli rRNA inh RFP,UCH37 inh,FGF22 binding
Cc1cccc(-c2nc(CS(=O)CC(=O)N3CCCCC3)c(C)o2)c1 (centres undefined),nt,-15,1,0.7,0.77,-1,3,2.7,4.3,i
O=C(NCc1cccs1)C1CC(c2ccc(F)cc2)=NO1 (centres undefined),-0.2,1,-6,-1.1,0.66,7,4,-2.5,2.5,i
Cc1ccc(CCNC(=O)CCS(=O)(=O)c2ccc3nc(C)sc3c2)cc1,0.0,1,0,-2.4,0.7,2,4,0.0,3.4,i
CCOc1ccc2nc(NC(=O)c3cnccn3)sc2c1,-1.1,-19,-13,nt,0.75,nt,nt,nt,1.0,nt
O=C(NNC(=O)c1ccc2[nH]c(=O)c(=O)[nH]c2c1)c1cccc(Br)c1,-1.3,-13,4,-0.3,0.63,-3,1,-4.1,-1.8,i
C/C(=N\NS(=O)(=O)c1ccc(Cl)cc1)c1ccc(O)cc1,-0.5,-6,-7,5.1,nt,14,-7,1.4,nt,i

Some of the compounds tested; the hit share may differ from the screen's.
